CtBP-E1A blk: qHTS Assay for Inhibitors of the CtBP/E1A Interaction. activity change, % (concentration not given with the values). AID 651724, 2012. AlphaScreen GST-E1A/His-CtBP binding, 1536-well; stronger effect = lower value; control for the full effect not named in the record. hit rate 0.49% among 340,000. CtBP / adenovirus E1A interaction (AlphaScreen); in the data active means activity change below about -65%; inconclusive means about -30% to -65%; inactive means above about -30%; note: % is set by controls: 0 for no effect and ±100 for the full control effect
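Steps: dispense buffer (Tris pH 8.0, NaCl 300 mM, TCEP 1 mM, BSA, Tween 20); add 5X protein mix (GST-E1A, His-CtBP, 125 nM each); pin 23 nL compound; 2 h at 37 °C, dark; add 5X beads (50 ug/mL); 1 h; read.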
TRPV1 potentiator: HTS Assay for Compounds that Act as Potentiators of the Vanilloid Receptor 1; Transient receptor potential cation channel subfamily V member 1 (Homo sapiens), Q8NER1; TRPV1-expressing cells, Fluo-8 calcium influx, capsaicin EC20 potentiation; host cell line not named in the record; control for the full effect not named in the record; potentiation, % at 8.33 µM; hit rate 0.02% among 320,000; active means potentiation above 80%; inconclusive means 30% to 80%; inactive means below 30%; note: 0% is about no effect
Target sequence (Q8NER1 whole entry, looked up): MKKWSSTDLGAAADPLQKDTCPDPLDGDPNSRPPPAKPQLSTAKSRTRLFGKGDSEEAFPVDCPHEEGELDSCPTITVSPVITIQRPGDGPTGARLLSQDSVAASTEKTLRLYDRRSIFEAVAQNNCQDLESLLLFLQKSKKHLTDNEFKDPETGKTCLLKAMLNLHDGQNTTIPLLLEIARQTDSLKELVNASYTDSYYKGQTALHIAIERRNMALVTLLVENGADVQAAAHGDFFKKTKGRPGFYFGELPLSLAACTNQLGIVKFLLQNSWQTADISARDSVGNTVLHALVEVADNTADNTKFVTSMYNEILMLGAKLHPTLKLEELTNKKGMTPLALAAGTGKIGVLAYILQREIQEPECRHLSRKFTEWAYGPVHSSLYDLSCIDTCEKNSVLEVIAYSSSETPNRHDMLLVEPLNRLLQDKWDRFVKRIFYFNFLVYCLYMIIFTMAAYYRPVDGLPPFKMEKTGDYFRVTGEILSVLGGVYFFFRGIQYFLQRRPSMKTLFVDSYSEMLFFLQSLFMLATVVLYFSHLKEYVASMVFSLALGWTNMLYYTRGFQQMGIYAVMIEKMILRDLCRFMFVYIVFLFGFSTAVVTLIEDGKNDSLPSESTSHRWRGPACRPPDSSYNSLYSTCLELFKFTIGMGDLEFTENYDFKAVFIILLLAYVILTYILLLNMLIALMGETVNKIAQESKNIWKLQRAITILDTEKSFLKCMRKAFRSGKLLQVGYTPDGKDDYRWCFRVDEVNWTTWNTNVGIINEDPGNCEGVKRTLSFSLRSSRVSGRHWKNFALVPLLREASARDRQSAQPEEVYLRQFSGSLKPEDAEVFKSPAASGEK
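Fluo-8 calcium influx in TRPV1-expressing cells, kinetic read (ex 480/em 520 nm). Compound added and read 3 min for agonist activity, followed by capsaicin at EC20 final and 2 min further read for enhancement.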
gsp antagonist: qHTS for Antagonists of gsp, the Etiologic Mutation Responsible for Fibrous Dysplasia/McCune-Albright Syndrome: qHTS; gsp-mutant cells, cAMP HTRF, 30 min; control for the full effect not named in the record; Potency, µM (top dose mostly 76.9 µM), for the others: at the top dose activity change, negative = inhibition, actives largely listed as inhibitors; hit rate 0.4% among 340,000; AID 624288, 2012; active = falling curve of any shape with a large fitted effect; inconclusive = falling curve, mostly with a smaller effect; inactive = flat or rising curve; cell line not stated here;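 note: intracellular cAMP measured with PDE inhibitor Ro 20-1724 present during compound exposure; potency is the fitted concentration of half-maximal effect; % is set by controls: 0 for no effect and ±100 for the full control effect; nearly all actives have a fitted effect of over 65% in size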
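Cells in G418 medium, seeded 16-24 h, 37C; buffer exchange to DPBS + 1 mM CaCl2, 0.5 mM MgCl2, 0.05% BSA; cpds in DMSO + […] (300 uM stock), 30 min 37C; HTRF cAMP detection.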
Sfp inh: qHTS Assay for Inhibitors of Bacillus subtilis Sfp phosphopantetheinyl transferase (PPTase); 4'-phosphopantetheinyl transferase ffp (Bacillus subtilis), Q9F4F7; Biochemical Sfp PPTase activity, qHTS; Potency, µM, for the others: max response, negative = inhibition, hits mostly inhibitors; hit rate 3.5% among 310,000; AID 1490, 2009; active = well fitted inhibition curve with a large enough effect; inconclusive = small, poorly fitted or top-dose-only effect, or another doubt; inactive = no such curve, though single readings can be large or run the other way;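 note: the enzyme is Sfp with the accession as filed and its product quenches rhodamine fluorescence; potency is the fitted concentration of half-maximal effect; 0% = enzyme reaction without inhibitor and -100% = no enzyme wells; top concentration of the series not given in the record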
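With Hepes-Na pH 7.6 buffer containing 10 mM MgCl2, Sfp (15 nM) modified BHQ-2-YbbR (12.5 uM) using rhodamine-CoA (5 uM). Two reads 30 minutes apart at 525/598 nm yielded each well's rate.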
ClpP mod: qHTS Assay for Activators of ClpP | ATP-dependent Clp protease proteolytic subunit (Bacillus subtilis (strain 168)), P80244 | purified B. subtilis ClpP, FRET peptide cleavage, 20 min | Potency, µM (series often up to 57.5 µM), without a hit: at the top dose activity change, negative = active | hit rate 1.9% among 340,000; active = well fitted falling curve with a large enough effect; inconclusive = small, poorly fitted or top-dose-only effect; inactive = no such curve, though single readings can be large or run the other way; note: potency is the fitted concentration of half-maximal effect; the source files actives as falling curves though it sought activators and does not explain the sign; nearly all actives have a fitted effect of over 65% in size; many hits overshoot -100%
Target sequence (P80244 whole entry, looked up): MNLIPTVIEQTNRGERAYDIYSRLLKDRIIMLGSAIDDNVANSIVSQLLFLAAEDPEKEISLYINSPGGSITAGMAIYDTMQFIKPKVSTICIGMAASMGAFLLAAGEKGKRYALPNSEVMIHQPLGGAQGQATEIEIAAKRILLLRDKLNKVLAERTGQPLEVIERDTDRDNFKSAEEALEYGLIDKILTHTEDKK
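ClpP 10 microg/mL final, pH 8 Tris/KCl buffer with BSA, glycerol, Tween-20; compound pinned in; FRET-FV substrate; RT 20 min; Ex320/Em430; ΔFRET vs ADEP 5.8 microM, DMSO, no enzyme.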
gsp agonist: qHTS for Agonist of gsp, the Etiologic Mutation Responsible for Fibrous Dysplasia/McCune-Albright Syndrome: qHTS; gsp mutant cells, cAMP HTRF, 30 min; control for the full effect not named in the record; Potency, µM (series often up to 76.9 µM), for inactives: at the top dose activation (cAMP increase), actives largely listed as activators; hit rate 0.13% among 340,000; AID 624287, 2012; active = well fitted activation curve with a large enough effect; inconclusive = small, poorly fitted or top-dose-only effect, or another doubt; inactive = no such curve, though single readings can be large or run the other way; cell line not stated here;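 note: phosphodiesterase inhibitor Ro 20-1724 added with compounds to block cAMP breakdown; potency is the fitted concentration of half-maximal effect; nearly all actives have a fitted effect of over 60% in size; about a fifth of the inactives were tested at one dose only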
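Cells in DMEM/10% FBS with G418 were pretreated with compounds in DMSO plus […] (300 uM stock) for 30 min at 37C. cAMP was measured by HTRF (cAMP-d2 plus anti-cAMP antibody-K) after 30 min at room temperature.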
Menin-MLL FL inh: qHTS Assay for Inhibitors Targeting the Menin-MLL Interaction in MLL Related Leukemias: Competition With Fluorescein Labeled MLL-derived Peptide | Fluorescence polarization, fluorescein-MLL peptide displacement from menin | FP activity change, % at 61.4 µM | 290,000 tested, under 10 active | AID 1766, 2009; inconclusive = falling polarisation curve, or a change in total fluorescence; inactive = total fluorescence flat and polarisation flat or rising; no compound was filed as active; the % refers to the polarisation; negative = inhibition;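 note: % of control where 0% means no effect; inhibitors lower the polarisation; unlabelled MLL peptide was the positive control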
* = called active by the depositor; ? = inconclusive; . = not tested or not shown; [ ] = remark or other dose.

SMILES | CtBP-E1A blk | TRPV1 potentiator | gsp antagonist | Sfp inh | ClpP mod | gsp agonist | Menin-MLL FL inh
CC1CCCC(NC(=O)COC(=O)c2ccc3ncsc3c2)C1C (stereo not given) | 6 | 5 | -2% | . | 0.9% | -49%[inhibitor] | .
O=C(O)c1cccnc1SCc1cn2cc(Cl)ccc2n1 | 1 | 5 | -5% | ? | -8.7% | -10% | -6.5
CN(C)C=Nc1c(C(=O)c2ccccc2)sc2nccc(N(C)C)c12 | -14 | -5 | -29% | -17% | . | 8% | 4.2
Cc1ccccc1C(=O)c1cccn1CC(=O)NCCCN1CCCCC1 | -1 | 8 | -2% | 17% | -0.2% | 1% | 0.6
CC1CCN(CCCCOc2ccc(C(=O)c3ccccc3)cc2)CC1 | 8 | 0 | 15% | -23% | 0.0% | 0% | -0.3
O=[N+]([O-])c1ccc(-c2csc3[n+]2CCS3)cc1 | 1 | 5 | -5% | 11µM* | 0.7% | 8% | 4.4
CCc1cc2cc3c(cc2nc1SCC(=O)Nc1cc(C)on1)OCO3 | 3 | 2 | 21% | ? | 4.2% | ? | 6.2
CC1(C)S[C@@H]2[C@H](NC(=O)C(NC(=O)N3CCNC3=O)c3ccccc3)C(=O)N2[C@H]1C(=O)O (stereo not given in full) | 2 | -12 | 10% | 0% | -2.2% | -60% | -0.8
CCC(C)N1C(=O)CCC1C(=O)N1CCN(c2ccccc2F)CC1 (stereo not given) | 4 | -2 | 7% | 21% | -3.0% | ? | 8.4
O=C(O)CNC(=O)CC1S/C(=N/N=C/c2ccccc2O)NC1=O (stereo not given) | . | 1 | -10% | 30% | 2.1% | -4% | 0.4
CC(C)c1ccc(NC(=O)CSc2nc(=O)n(CCCN3CCOCC3)c3c2CCC3)cc1 | 1 | -11 | -3% | . | -1.2% | -4%[15.4 µM] | .
Cc1ccccc1C(=O)N1CCN(c2ccc([N+](=O)[O-])c(N3CCOCC3)c2)CC1 | 0 | -7 | -13% | 1% | 0.1% | 9% | 0.2
CN(c1cccc(NC(=O)COc2ccc(Cl)cc2Cl)c1)S(C)(=O)=O | 8 | -2 | -19% | 9% | 1.1% | -7% | 0.4
CC(Oc1ccccc1)C(=O)Nc1nnc(S(=O)(=O)N2CCCCC2)s1 (stereo not given) | 1 | -3 | -5% | 27% | -5.9% | ? | 6.9
O=C(N/N=C/c1ccc([N+](=O)[O-])o1)c1cn2ccc3ccccc3c2n1 | -16 | . | -11% | 13% | . | -9%[15.4 µM] | 7.4
COC1OC2COC(c3ccccc3)OC2C(O)C1NC(C)=O (stereo not given) | 4 | . | 5% | . | 1.7% | . | .
CC(C)N(C(=O)Nc1ccc2nsnc2c1)C(C)C | ? | 9 | -22% | 4.5µM* | -11% | ? | ?
O=C(CN(Cc1ccc(F)cc1)C(=O)c1ccco1)NCc1ccc(F)cc1 | 3 | -18 | 6% | 17% | -1.0% | 17% | 0.0
O=C(COc1ccc(S(=O)(=O)N2CCCC2)cc1[N+](=O)[O-])N1CCCCC1 | 3 | . | . | . | 0.4% | -28% | .
N#C/C(=C\c1c(F)cccc1Cl)C(=O)NC1CC1 | 8 | 29 | -9% | 4% | -2.8% | ? | .
CCOC(=O)N1CCN(C(=O)/C=C/c2ccc([N+](=O)[O-])cc2)CC1 | . | -2 | -10% | 5% | -2.3% | 3% | -8.7
COc1ccc(C(=O)Nc2cccnc2)cc1C(=O)Nc1cccnc1 | -5 | -7 | -1% | 3% | -2.7% | . | 0.6
NC(=O)c1ncn([C@@H]2O[C@H](CNCc3c(OCc4ccccc4F)ccc4ccccc34)[C@@H](O)[C@H]2O)n1 | -2 | . | 5% | . | 0.0% | . | .
CCOc1ccc(N(CC(=O)NCC(C)C)S(C)(=O)=O)cc1 | 0 | -1 | 11% | 24% | -0.5% | -14% | 5.4
Cc1ccc(C)c(S(=O)(=O)Nc2ccc(C(=O)NCCCN3CCCC3=O)cc2)c1 | 4 | 10 | 2% | 8% | 0.3% | -8% | -4.3
COc1ccc(N2CCN(C(=O)COC(=O)CCOc3ccc(C(C)(C)C)cc3)CC2)cc1 | 14 | -7 | 6% | . | -7.0% | 14% | .
Cc1cc(C)c(S(=O)(=O)Nc2ccc(O)cc2)c(C)c1 | 3 | 30 | -12% | -14% | 1.9% | 35% | 5.1
CCOc1cc(/C=C(\CC(=O)O)c2nc3ccccc3s2)ccc1OCC(=O)Nc1cccc(C(F)(F)F)c1 | 0 | . | -20% | . | -1.1% | -7% | .
Cc1nc(-c2cn[nH]c2-c2ccc(O)cc2O)cs1 | . | 1 | 10% | -1% | 1.0% | -9% | 3.2
Cc1csc(NC(=O)c2sc3nc(-c4cccs4)ccc3c2N)n1 | -9 | 1 | 30% | -1% | -24% | ? | ?
CC(NCc1cc(Br)ccc1OCC(=O)NCc1ccccc1)c1ccccc1 (stereo not given) | 0 | -9 | 4% | -21% | 0.9% | -46% | 1.2
CN(C)C(CNC(=O)c1cccc(S(=O)(=O)Nc2ccccc2Cl)c1)c1ccccc1 (stereo not given) | -3 | . | -17% | . | 1.0% | ? | .
CCOc1ccc2nc(N3CCC(C(=O)N4CCN(C5CCCCC5)CC4)CC3)sc2c1 | 6 | 2 | 3% | -18% | 0.3% | -12% | -0.4
O=C(CCC(=O)c1cccs1)NCc1cccc(C(F)(F)F)c1 | 0 | -6 | 1% | . | 1.4% | -5% | .
CN(C)c1ccc(/C=C2\C(=N)N3N=C(CC(=O)N4CCCC4)SC3=NC2=O)cc1Br | -22 | -5 | -3% | 9% | -1.1% | 25% | 30
Cc1cc(C(=O)NNC(=O)C2CCCC2)c(C)o1 | -12 | 10 | 4% | 24% | . | -3%[15.4 µM] | -1.4
COC(=O)c1nc2nc(C)cc(C(F)(F)F)n2n1 | -3 | 26 | 9% | 20% | -7.0% | -9% | 4.8
Clc1ccc(-c2cc(CSc3cccc(Cl)c3)on2)cc1 | 112 | 1 | -7% | -3% | 1.2% | -25% | 1.4
CCCCOC(=O)C1=C(C)NC(=O)NC1c1ccc(N(C)C)cc1 (stereo not given) | . | 1 | 9% | 9% | -11% | 8% | 1.7
CN(C)CCNC(=O)/C=N/O | 3 | 6 | -1% | 24% | 0.2% | -70%[inhibitor] | 1.6
COc1ccc(-c2cc3nc(-c4ccccc4)cc(N4CCN(C(C)=O)CC4)n3n2)cc1 | 14 | . | . | . | 4.6% | ? | .
CCN(Cc1cnn(C)c1)Cc1nc(C2(c3ccc(C)cc3)CCCC2)no1 | -4 | -3 | -5% | 3% | . | 13% | -0.4
CC(C)(C)c1cc(NC(=O)COc2ccc(Br)cc2)n(-c2ccccc2)n1 | 5 | 6 | -23% | 11% | -2.3% | 17% | 3.0
COc1cccc(C2C3=C(N=c4s/c(=C\c5ccccc5O)c(=O)n42)c2ccccc2CC3)c1OC (stereo not given) | . | -1 | . | -1% | . | . | ?
O=C(CCS(=O)(=O)c1cccc2nsnc12)NCc1ccccc1Cl | 3 | 7 | -10% | 8% | -3.3% | -4% | -1.3
CC(C)(O)C1Cc2cc(/C=C/C(=O)O)c(O)cc2O1 (stereo not given) | -14 | 6 | 0% | 6.3µM* | . | -24% | 2.9
O=C(Nc1ccc2c(c1)OCCO2)C1CCCN1C(=O)Nc1ccc(F)cc1 (stereo not given) | 4 | 3 | 11% | 14% | 1.4% | -61%[inhibitor] | 5.4
OC12CC3C[C@H](C1)C(N1CCOCC1)[C@@H](C3)C2 (stereo not given in full) | . | 10 | 0% | 5% | -1.0% | 0% | -1.4
CCn1c(=O)c2c(nc(SCC(=O)N3CCCC(C)C3)n2C)n(C)c1=O (stereo not given) | 26 | 0 | -38% | 17% | -0.7% | 34%[15.4 µM] | -0.8
COc1ccccc1CN1C(=O)[C@@H]2C(CCC(N)=O)NC3(C(=O)Nc4c3ccc(Cl)c4C)[C@@H]2C1=O (stereo not given in full) | -1 | -1 | 2% | 7% | 0.7% | -43%[inhibitor] | 3.0
O=C(CSc1ccc([N+](=O)[O-])cc1)NCC1CCCCC1 | -1 | -25 | 0% | -13% | 2.6% | 0% | 5.7
COc1ccc(C(=O)C2CCCN(C(=O)c3cccnc3SC)C2)c(C)c1 (stereo not given) | -2 | 28 | -8% | 7% | . | 18% | -2.9
Cc1ccc(NC(=O)C(=S)NCc2ccco2)cc1 | -5 | -13 | 7%[15.4 µM] | 16% | 1.0% | -31%[inhibitor] | -0.2
CCOc1ccc(/C=N/NC(N)=S)cc1 | 1 | -1 | -10% | -3% | 0.8% | -24% | 0.3
O=C(O)c1cc(N/N=C/c2ccncc2)ccc1Cl | 0 | 14 | 0% | 10% | . | -13%[15.4 µM] | 0.3
CCCc1cc(=O)[nH]c(SCC(=O)NC2(C#N)CCCCC2)n1 | -1 | 0 | 0% | . | 0.1% | -3% | .
COc1ccc(/C=C/C(=O)c2ccc(OC)cc2OC)c(OC)c1 | -2 | ? | ? | -16% | -4.6% | . | -1.9
CCC(C)(C(=O)NC1CCCCC1)N(Cc1ccco1)C(=O)CNC(=O)c1ccccc1 (stereo not given) | 4 | -3 | -2% | 21% | -1.1% | -30% | 2.3
C=C(C)c1cccc(C(C)(C)NC(=O)NCCN(CC)CC)c1 | -1 | 9 | 7% | 5% | 1.3% | 5% | 3.6

Assay outcomes: PubChem BioAssay, National Center for Advancing Translational Sciences (NCATS)
